PMP22 txn prim – modulates PMP22 transcription in S16 Schwann cells; S16 Pmp22-F2sN Schwann cells (luciferase reporters placed in the Pmp22 gene), FLuc/NLuc coincidence luminescence, 24 h; Potency, µM (series often up to 57.5 µM), inactives show at the highest dose activity change, negative = inhibition, usual class: inhibitors; 2% of 43,000 active; AID 1508649; active = clear falling dose curves in both reporters; inconclusive = both reporters move, but less clearly or upward; inactive = either reporter flat; the % is the NLuc reporter signal; note: % is set by controls: 0 for no effect and ±100 for the full control effect; some results filed as inactive show a strong effect at the top dose
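qHTS, 1536-well. Cells seeded, compounds added by pin tool, 24 h 37C. Nano-Glo reagent 1 (lysis/FLuc), 10 min RT, read; Stop&Glo, 10 min RT, read NLuc.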
HTT promoter inh – HTT promoter inhibition. HEK293 HTT promoter firefly luciferase reporter (activity 0% = vehicle and -100% = no light), 24 h. Potency, µM (doses to about 57.5 µM), without a hit: top-dose activity change, negative = inhibition, hits mostly inhibitors. 0.93% of 48,000 active. AID 1508623; active = well fitted inhibition curve with a large enough effect; inconclusive = small, poorly fitted or top-dose-only effect; inactive = no such curve, though single readings can be large or run the other way; note: nearly all actives have a fitted effect of over 50% in size
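Luminescence was read after Dual-Glo reagent and a 10 min room-temperature incubation. Values were normalized to vehicle (0% activity) and zero RLU (-100% activity). Reporter HEK293 cells had been exposed to compounds (up to 57.5 uM final) for 24 h.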
* hit, by the source's call; ? = inconclusive; / = no result given; & = joins results of further samples; [ ] = remark or other dose. Potency is the fitted concentration of half-maximal effect. Hits appear at their usual frequency (roughly 2.6% active in at least one column).

molecule | PMP22 txn prim | HTT promoter inh
Cn1cc(C(=O)NCc2ccc(Cl)cc2)c(=O)c2cc(S(=O)(=O)N3CCCCCC3)ccc21 | ? | -15%
CC(C)c1ccc(Nc2ncnc3c2c(-c2ccccc2)cn3-c2ccccc2)cc1 | -4% | -12%
CC(=O)c1ccc(NC(=O)CCOc2ccccc2)cc1 | -2% | 47%[activator]
CCc1cccc(C)c1NC(=O)c1cn2c3c(ccc(Cl)c3c1=O)OC(C)C2 (centres undefined) | -25% | -16%
Cc1ccc(-n2c3c(cc(C(=O)Nc4cccc(Cl)c4)c2=O)C(=O)CC(C)(C)C3)cc1 | -2% | 4%
CCN(CC)c1cc2c(cc1F)c(=O)c(S(=O)(=O)c1ccccc1)cn2Cc1ccccc1 | ? | ?
CCOC(=O)OCC/C(SC(=O)OCC)=C(\C)N(C=O)Cc1cnc(C)nc1N | / | -3%
COc1ccccc1CNC(=O)Cc1csc2nc(-c3ccc(Cl)cc3)cn12 | -16% | -27%
Cc1ccc(N2CC(NC(=O)c3ccco3)CC2=O)cc1 (centres undefined) | 10% | -10%
CCc1ccc2ncc3c(-c4ccc(F)cc4)nn(CC(=O)NC4CCCCC4)c3c2c1 | -1% | -7%
COC(=O)C1=C(C)NC(=O)C1(NC(=O)c1ccc(Cl)cc1)C(F)(F)F (centres undefined) | -2% | -9%
COc1ccccc1Nc1nc(C)nc(N)c1S(=O)(=O)c1ccccc1 | -19% | -9%
COc1ccc(-c2nc3sc(CCNC(=O)c4cc(OC)c(OC)c(OC)c4)c(C)n3n2)cc1 | -36% | 12%
Cc1ccc(NC(=O)c2oc3ccc(S(=O)(=O)N4CCC5(CC4)OCCO5)cc3c2C)c(C)c1 | ? | ?
Cc1ccc(-c2nc3cc(NC(=O)c4cc5ccccc5o4)ccc3o2)cc1 | -34% | 25%
CCC(=O)N1CCc2cc(S(=O)(=O)CCC(=O)NCc3ccc(F)cc3)ccc21 | ? | -15%
COc1cc(C(=O)Nc2ccc(-c3cc(C(F)(F)F)nn3-c3ccccc3)cc2)cc(OC)c1OC | ? | ?
COc1ccc(Cl)cc1NC(=O)Cn1c(=O)n(CCCC(=O)NCCc2ccc(OC)c(OC)c2)c(=O)c2ccccc21 | ? | -18%
CCc1ccc(Cn2c(CNS(=O)(=O)c3ccc(Cl)s3)nc3cccnc32)cc1 | -8% | -21%
Cc1cc(=O)n2nc(N(C)CC(=O)NCc3cccc(Br)c3)sc2n1 | -5% | -9%

Among those listed so far, these have fluorine:
molecule | PMP22 txn prim | HTT promoter inh
CCN(CC)c1cc2c(cc1F)c(=O)c(S(=O)(=O)c1ccccc1)cn2Cc1ccccc1 | ? | ?
CCc1ccc2ncc3c(-c4ccc(F)cc4)nn(CC(=O)NC4CCCCC4)c3c2c1 | -1% | -7%
COC(=O)C1=C(C)NC(=O)C1(NC(=O)c1ccc(Cl)cc1)C(F)(F)F (centres undefined) | -2% | -9%
CCC(=O)N1CCc2cc(S(=O)(=O)CCC(=O)NCc3ccc(F)cc3)ccc21 | ? | -15%
COc1cc(C(=O)Nc2ccc(-c3cc(C(F)(F)F)nn3-c3ccccc3)cc2)cc(OC)c1OC | ? | ?

(further entries)
molecule | PMP22 txn prim | HTT promoter inh
CCc1c(C)sc(NC(=O)c2cc(-c3cccc(Cl)c3)on2)c1C#N | -20% | -3%
CCOc1ccc(NC(=O)CSc2ncc3c(n2)-c2ccccc2N(C)S3(=O)=O)cc1 | 0% | -16%
Cc1cccc(C)c1OCc1nc2c3cnn(-c4ccccc4F)c3ncn2n1 | 2% | -7%
COc1cc(OC)c(C2Nc3ccccc3-c3nnc(SCc4ccccc4)nc3O2)cc1OC (centres undefined) | 12% | 6%
CCN(C(=O)C1CCN(S(=O)(=O)c2ccc3c(c2)CCCN3C(=O)C2CCC2)CC1)c1cccc(C)c1 | ? | -9%
CCCCC12CN3CC(C)(CN(C1)C3c1c[nH]c3ccccc13)C2=O (centres undefined) | 6% | -16%
CCn1cc(C(=O)NCCc2ccc(OC)c(OC)c2)c(=O)c2cc(S(=O)(=O)N3CCc4ccccc4C3)ccc21 | ? | 5%
Cc1cc(C)cc(NC(=O)C2CCCN2S(=O)(=O)c2cccc3nsnc23)c1 (centres undefined) | -4% | -28%
COC(=O)CCCn1c(-c2ccc(C)cc2)c(C)n2c3c(=O)n(C)c(=O)n(C)c3nc12 | ? | 5%
Cc1cccc(C)c1NC(=O)Cn1c(=O)n(CC2CCC(C(=O)NCCc3ccccc3)CC2)c(=O)c2ccccc21 (centres undefined) | ? | -1%
Cc1cc(-c2ccc(C)c(S(=O)(=O)NCCc3ccccc3)c2)on1 | -32% | ?
COc1ccc(OC)c(-c2noc(N3CCN(c4ccc(C(C)=O)cc4)CC3)n2)c1 | -113% | -28%
COc1ccc(NC(=O)Nc2cc(-c3cn4cccnc4n3)ccc2OC)cc1 | -2% | ?
CC(C)CN(C(=O)c1cccc(S(=O)(=O)N2CCCCC2)c1)C1CCS(=O)(=O)C1 (centres undefined) | -5% | -20%
COc1ccc(N2CC(c3nc(-c4ccccc4C)no3)CC2=O)cc1Cl (centres undefined) | ? | -3%
CCN(CC)c1ccc(NC(=O)C2COc3ccc(OC)cc3C2)c(C)c1 (centres undefined) | 12µM* | ?
CCCCC[C@H](O)C=C[C@H]1[C@H](O)CC(=O)[C@H]1CCCCCCC(=O)O | / | -6%
CCOC(=O)c1ccccc1NC(=O)Cn1c(=O)n(Cc2nc(C)no2)c(=O)c2ccccc21 | -9% | -16%
CCCCc1nn2c(=O)cc(COC(=O)c3ccc(NC(=O)c4cccs4)cc3)nc2s1 | 3% | -23%
O=C(COc1ccccc1F)Nc1ccc2nc(SCc3ccccc3)sc2c1 | -31% | -8%
CN(C(=O)CSc1nnc2[nH]c(=O)cc(-c3ccccc3)n12)c1ccccc1 | 12% | 11%
O=C(Cn1nnc(-c2ccc(Cl)cc2)n1)NCc1ccc(F)cc1 | 5% | -11%
O=C(c1cc2c(s1)-c1ccccc1OC2)N1CCN(c2ccccc2)CC1 | -3% | -13%
Cc1ccc(OCC(=O)Nc2cccc(C(=O)OCc3cc(=O)n4cc(C)sc4n3)c2)cc1 | -5% | -19%
COc1ccc(Cn2c(=O)c3cccnc3n(CC(=O)Nc3ccc(C)c(F)c3)c2=O)cc1 | -39% | 7%
CCCNC(=O)c1ccc2c(c1)N(Cc1cccc(C)c1)C(=O)c1ccccc1S2 | 6% | ?
COc1cc(CNCCSc2nnnn2C)cc(Cl)c1OCc1ccccc1 | ? | -21%
CC(=O)Oc1c(C)c(C)c2c(c1C)CC[C@@](C)(CCC[C@H](C)CCC[C@H](C)CCCC(C)C)O2 | / | 1%
Cc1[nH]c(=O)[nH]c(=O)c1S(=O)(=O)N1CCN(c2ccccc2Cl)CC1 | 48% | -14%
O=C(CN1C(=O)COc2ccc(S(=O)(=O)NC3CCCC3)cc21)Nc1ccc(F)c(Cl)c1 | ? | ?
CC(=O)N1CCN(c2ccc(OCc3nn(C)c(C)c3-c3cccc4c(CCCOc5cccc6ccccc56)c(C(=O)O)n(Cc5cccnc5)c34)cc2)CC1 | / | 17%
Cc1ccccc1OCCSc1nc2ccc(NC(=O)c3cccs3)cc2s1 | ? | ?
Cc1cccc(Cn2nnc3c(=O)[nH]c(C4CCN(C(=O)c5ccccc5F)CC4)nc32)c1 | 3% | -18%
CCOc1ccccc1NC(=O)C(CC)Sc1nc2ncccc2[nH]1 (centres undefined) | ? | -24%
COc1cc(OC)c(NC(=O)Cn2c(=O)nc(-c3ccccc3)c3ccccc32)cc1Cl | -30% | -11%
Cc1ccc(C)c(N2CCN(C(=O)c3ccc4c(c3)N(Cc3ccc(F)cc3)C(=O)c3ccccc3S4=O)CC2)c1 (centres undefined) | -45% | -5%
Cc1cccc(NC(=O)c2c(Br)sc3c2CCCC3)c1 | ? | -28%
CCOc1ccc(C(=O)Nc2ccccc2C(=O)OCc2cc(=O)n3nc(C4CC4)sc3n2)cc1 | 9% | 7%
CC(=O)N1CCc2c(sc3c2c(=O)n(-c2ccc(C)cc2)c(=O)n3CC(=O)Nc2ccccc2)C1 | -32% | 35%[activator]
COc1ccc(Cl)cc1C(=O)Nc1ccc(-c2nnc3n2CCCCC3)cc1 | 13% | -7%

The last 3 compounds of the part above open the next one:
molecule | PMP22 txn prim | HTT promoter inh
CCOc1ccc(C(=O)Nc2ccccc2C(=O)OCc2cc(=O)n3nc(C4CC4)sc3n2)cc1 | 9% | 7%
CC(=O)N1CCc2c(sc3c2c(=O)n(-c2ccc(C)cc2)c(=O)n3CC(=O)Nc2ccccc2)C1 | -32% | 35%[activator]
COc1ccc(Cl)cc1C(=O)Nc1ccc(-c2nnc3n2CCCCC3)cc1 | 13% | -7%
COC(=O)c1ccc(OCC2c3cc(OC)c(OC)cc3CCN2C(=O)c2ccc(OC)cc2)cc1 (centres undefined) | 0% | -27%
CC(=O)OCC(=O)[C@@]12N=C(C)O[C@H]1C[C@H]1[C@@H]3CCC4=CC(=O)C=C[C@]4(C)[C@@H]3[C@@H](O)C[C@@]12C | / | ?
CCCCCOc1ccc(Cn2c(=O)oc3ccc(C)cc32)cc1OC | -34% | ?
COc1cc(OC)c(OC)cc1/C=C/c1nc2cc3ccccc3cc2c(=O)n1-c1ccc(Cl)cc1 | -32% | ?
COc1cc2c(C(=O)N3CCN(c4ccc(C)cc4)C(C)C3)cn(CC(C)C)c(=O)c2cc1OC (centres undefined) | ? | ?
CCOc1cc2c(cc1OCC)C(c1c(F)cccc1Cl)CC(=O)N2 (centres undefined) | ? | -26%
COc1cccc(-c2nn(C)c3sc(C(=O)N4CCN(c5cccc(C(F)(F)F)c5)CC4)cc23)c1 | 4% | ?
CCOC(=O)c1c(NC(=O)C(C)Sc2cn(CCNC(=O)c3ccc(OC)c(OC)c3)c3ccccc23)sc2c1CCC2 (centres undefined) | -23% | -27%
Cc1cccc(NC(=O)CSc2ccc(-c3ccccn3)nn2)c1 | ? | -22%
CCN1CCN(C(=O)c2ccc3c(c2)N(Cc2ccccc2)C(=O)c2ccccc2S3(=O)=O)CC1 | 0% | 3%
COc1ccccc1-c1cc2nc(C)c(CCC(=O)Nc3cc(C)ccc3C)c(C)n2n1 | ? | ?
COc1ccc(NC(=O)CSc2nccn2Cc2ccc3c(c2)OCO3)cc1 | 17% | -18%
COc1cccc(-n2c(SCc3cccc(C)c3)nc3c([nH]c4ccccc43)c2=O)c1 | ? | ?
COc1ccc(S(=O)(=O)Nc2c(C)nc3nc(C)[nH]n3c2=O)cc1 | -15% | -18%
COc1cc(NC(=O)C2Cc3ccccc3N2C(=O)c2ccccc2)cc(OC)c1 (centres undefined) | 10% | -9%
CC(C)OCCCNC(=O)CN1C(=O)CSc2ccc(S(=O)(=O)N3CCOCC3)cc21 | -8% | -2%
Cc1c(Cl)cccc1Nc1nn2c(=O)c3ccc(C(=O)N(C)Cc4ccccc4)cc3nc2s1 | -25% | -30%
Cc1ccc2c(c1)N(CC(=O)NCCc1ccc(Cl)cc1)C(=O)c1cccnc1O2 | -13% | -23%
COc1cccc(NCc2cccn2-c2nnc(N3CCC(C)CC3)s2)c1 | ? | 10µM*
OC(Cn1cncn1)(Cn1cncn1)c1ccc(F)cc1F | / | 10%&-3%
COc1ccc(Cn2nc3n(c2=O)-c2ccccc2OC3)cc1 | 0% | 10%
CCOCCc1nn2c(=O)cc(COC(=O)c3ccccc3OC)nc2s1 | -11% | -2%
COc1ccc(NC(=O)Cn2c(=O)n(Cc3ccccc3Cl)c(=O)c3cc(OC)c(OC)cc32)cc1OC | 13µM* | -3%
CCOc1ccc(NC(=O)Cn2c(=O)n(CCc3ccccc3)c(=O)c3c4c(sc32)CCCC4)cc1 | ? | -4%
COc1ccccc1CNC(=O)CSc1ccc(-c2sc(-c3ccccc3)nc2C)nn1 | ? | -1%
CCCCN(C)c1nc2c(S(=O)(=O)c3ccc(CC)cc3)nnn2c2ccc(Cl)cc12 | ? | 3%
CCOc1ccc(CNC(=O)C2CCN(C(=O)N3CC(CC)Oc4ccccc43)CC2)cc1 (centres undefined) | ? | ?
CC1CCN(S(=O)(=O)c2ccc3c(c2)N(CC(=O)NCCN(C)C)C(=O)CS3)CC1 | -9% | 1%
Cc1cc2nn(-c3ccccc3)nc2cc1NC(=O)Cc1ccc(Cl)cc1 | -31% | 92%[activator]
COc1cc(C2c3c(oc4ccccc4c3=O)C(=O)N2c2nnc(C(C)C)s2)cc(OC)c1OC (centres undefined) | 17% | -12%
CCOC(=O)c1c(S(=O)(=O)NCC(=O)N2CCN(c3ccccc3OC)CC2)c(C)n(C)c1C | -31% | 0%
O=C1CSC2(C(=O)N(Cc3ccccc3)c3ccccc32)N1c1cccc(F)c1 (centres undefined) | -43% | ?
Fc1ccc(-c2nn(-c3ccccc3Cl)c3c2cnc2ccccc23)cc1 | ? | -32%

From PubChem BioAssay
